Assay outcomes from PubChem BioAssay.
gsp agonist – agonists of gsp mutant (McCune-Albright syndrome); gsp mutant cells, cAMP HTRF, 30 min; control for the full effect not named in the record; Potency, µM (highest dose often 76.9 µM), for inactives: at the highest dose activation (cAMP increase), hits mostly activators; 340,000 tested, 0.13% active; AID 624287; active = well fitted activation curve with a large enough effect; inconclusive = small, poorly fitted or top-dose-only effect, or another doubt; inactive = no such curve, though single readings can be large or run the other way; cell line not stated here;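 further: phosphodiesterase inhibitor Ro 20-1724 added with compounds to block cAMP breakdown; potency means the concentration at half of the fitted maximal effect; nearly all actives have a fitted effect of over 60% in size; about a fifth of the inactives were tested at one dose only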
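Cells in DMEM/10% FBS with G418 were pretreated with compounds in DMSO plus […] (300 uM stock) for 30 min at 37C. cAMP was measured by HTRF (cAMP-d2 plus anti-cAMP antibody-K) after 30 min at room temperature.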
Menin-MLL FL inh – menin-MLL binding inhibition, fluorescein peptide; Fluorescence polarization, fluorescein-MLL peptide displacement from menin; FP activity change, % at 61.4 µM; 290,000 tested, under 10 active; inconclusive = falling polarisation curve, or a change in total fluorescence; inactive = total fluorescence flat and polarisation flat or rising; no compound was filed as active; the % refers to the polarisation; negative = inhibition;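 further: % of control where 0% means no effect; inhibitors lower the polarisation; unlabelled MLL peptide was the positive control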
TRPML1 inh – human mucolipin-1 channel inhibition; activity change, negative = inhibition, % (concentration not given with the values); TRPML1-inducible cells, Ca2+ dye fluorescence, FDSS; hits give low values; inhibition of EC80 agonist-evoked calcium signal; 390,000 tested, 0.02% active; AID 624415; in the data active means activity change below about -50%; inconclusive means about -30% to -50%; inactive means above about -30%;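 further: stimulus is agonist 54-4 at its EC80 concentration; on the % scale 0 is the no-effect control and ±100 the full control effect; compound concentration not given in the record; the text of the record puts the active cut at -80%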
Target sequence (Q9GZU1 whole entry, looked up): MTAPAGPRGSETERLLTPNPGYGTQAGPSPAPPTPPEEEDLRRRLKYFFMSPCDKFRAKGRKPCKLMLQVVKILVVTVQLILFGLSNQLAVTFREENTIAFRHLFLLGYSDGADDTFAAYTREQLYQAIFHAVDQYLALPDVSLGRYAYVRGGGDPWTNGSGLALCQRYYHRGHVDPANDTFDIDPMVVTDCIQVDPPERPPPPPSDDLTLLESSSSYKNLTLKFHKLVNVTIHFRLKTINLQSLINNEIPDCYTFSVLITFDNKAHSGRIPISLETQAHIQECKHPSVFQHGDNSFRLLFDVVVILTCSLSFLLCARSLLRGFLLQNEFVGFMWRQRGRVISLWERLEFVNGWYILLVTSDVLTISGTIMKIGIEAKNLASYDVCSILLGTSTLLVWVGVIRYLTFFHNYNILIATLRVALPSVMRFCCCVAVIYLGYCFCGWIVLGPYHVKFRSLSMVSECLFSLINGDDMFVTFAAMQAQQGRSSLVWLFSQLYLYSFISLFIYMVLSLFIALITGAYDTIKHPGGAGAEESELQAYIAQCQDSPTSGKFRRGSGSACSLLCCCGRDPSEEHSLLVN
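Calcium fluorescence in TRPML1-DL cells induced overnight with Tet: a 110 s read after compound pin addition, then a 110 s antagonist read after challenge with 54-4 at 4 uM final (EC80).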
gsp antag – antagonists of gsp mutant (McCune-Albright syndrome) | 340,000 tested, 0.4% active | Potency, µM (doses to about 76.9 µM), for the others: top-dose activity change, negative = inhibition, usual class: inhibitors | AID 624288 | gsp-mutant cells, cAMP HTRF, 30 min; control for the full effect not named in the record; active = falling curve of any shape with a large fitted effect; inconclusive = falling curve, mostly with a smaller effect; inactive = flat or rising curve; cell line not stated here;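 further: intracellular cAMP measured with PDE inhibitor Ro 20-1724 present during compound exposure; potency means the concentration at half of the fitted maximal effect; on the % scale 0 is the no-effect control and ±100 the full control effect; nearly all actives have a fitted effect of over 65% in size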
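HTRF cAMP measurement after 30 min RT detection following 30 min, 37C compound treatment alongside […] (added as 300 uM solution) in G418-selected cells seeded at 2000/well and grown 16–24 h.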
TRPML1 ag – human mucolipin-1 channel agonism; Q9GZU1; TRPML1-expressing cells, Ca2+ dye fluorescence, FDSS; host cell line not named in the record; reference of the full effect not given here; activation, % (no concentration beside the values); 410,000 tested, 0.12% active; in the data active = activation above about 50%; inconclusive = about 30% to 50%; inactive = below about 30%; further: 0% is about no effect; the text of the record puts the active cut at 80%
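Tet-induced TRPML1-DL cells, 1,500 per well, cultured overnight, were loaded with a no-wash Ca2+ dye for 45–90 min. Calcium fluorescence was recorded on the FDSS for 110 s after compound addition, before the EC80 agonist (4 uM 54-4) was added.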
ClpP mod – qHTS Assay for Activators of ClpP; purified B. subtilis ClpP, FRET peptide cleavage, 20 min; Potency, µM (titrated, usually from 57.5 µM), for the others: at the top dose activity change, negative = active; 340,000 tested, 1.9% active; active = well fitted falling curve with a large enough effect; inconclusive = small, poorly fitted or top-dose-only effect; inactive = no such curve, though single readings can be large or run the other way; further: potency means the concentration at half of the fitted maximal effect; the source files actives as falling curves though it sought activators and does not explain the sign; nearly all actives have a fitted effect of over 65% in size; many hits overshoot -100%
Target sequence (P80244 whole entry, looked up): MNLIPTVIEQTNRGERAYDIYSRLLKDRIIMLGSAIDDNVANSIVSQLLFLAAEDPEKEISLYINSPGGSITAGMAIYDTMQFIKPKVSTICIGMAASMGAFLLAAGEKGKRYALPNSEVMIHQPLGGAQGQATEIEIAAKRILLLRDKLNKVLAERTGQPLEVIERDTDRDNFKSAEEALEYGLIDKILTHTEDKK
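FRET quenching reversal measured ClpP activation: 10 microg/mL B. subtilis ClpP at pH 8 with the FRET-FV decapeptide, read at 430 nm after 320 nm excitation. The 20-min minus 0-min signal was scaled between DMSO/no-enzyme wells and ADEP (5.8 microM final).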
* marks the source's active call; other numbers are inactive results; ? = inconclusive; / = no result given; [ ] = another dose, or the depositor's remark. Hits appear at their usual frequency; any-hit rate near 2.1%.

1) Cc1csc2ncc(C(=O)Nc3ccccc3F)c(=O)n12
2) COc1ccc(S(=O)(=O)NCC2CCCN(Cc3ccccc3Cl)C2)cc1 (stereo not drawn)
3) COc1cccc(C(=O)NCC(c2cccs2)N2CCOCC2)c1 (stereo not drawn)
4) CC12C(=O)N(Cc3ccccc3)C(=O)C1C1C=CC2C1 (stereo not drawn)
5) COc1cccc(NC(=O)C2CCCN2C(=O)OCc2ccccc2)c1 (stereo not drawn)
6) CCc1ccc(C(=O)NNC(=O)OC)cc1

assay / compound | 1 | 2 | 3 | 4 | 5 | 6
TRPML1 ag | 0.0 | -0.9 | -0.1 | 0.0 | 1.2 | -0.8
Menin-MLL FL inh | 0.8 | 0.1 | / | -1.8 | 4.9 | 0.5
gsp agonist | 13.1% | -24.5% | -34.2%[inhibitor] | 1.8% | ? | -4.9%[15.4 µM]
gsp antag | -10.6% | 8.9% | 9.5% | 6.6% | -4.1% | 14.0%
TRPML1 inh | 3.3 | -13.3 | 1.5 | 10.2 | 26.3 | 7.3
ClpP mod | -14.8% | -2.0% | -0.3% | -4.5% | -1.0% | 14.1µM*

Two compounds drawn at random from those above, as already listed:
3) COc1cccc(C(=O)NCC(c2cccs2)N2CCOCC2)c1 (stereo not drawn)
1) Cc1csc2ncc(C(=O)Nc3ccccc3F)c(=O)n12

assay / compound | 3 | 1
TRPML1 ag | -0.1 | 0.0
Menin-MLL FL inh | / | 0.8
gsp agonist | -34.2%[inhibitor] | 13.1%
gsp antag | 9.5% | -10.6%
TRPML1 inh | 1.5 | 3.3
ClpP mod | -0.3% | -14.8%

(listing goes on)
7) CC(=O)NC(=S)Nc1ccc(S(=O)(=O)N2CCOCC2)cc1
8) CC(=O)NCCc1nc2cc(NS(=O)(=O)c3ccc(Cl)cc3)ccc2n1C
9) O=C(Nc1ccc(N2CCOCC2)cc1)c1csc(COCCO)n1
10) Cc1nc2ncnn2c(N2CCN(S(=O)(=O)c3ccc(Br)cc3)CC2)c1C
11) C=CCOC(=O)N1CCC2CC1c1cc(-c3cccc(C)c3)ccc12 (stereo not drawn)
12) CCCNC(=O)C1(C)CCCN(C/C=C/c2ccccc2)C1 (stereo not drawn)

assay / compound | 7 | 8 | 9 | 10 | 11 | 12
TRPML1 ag | -0.5 | / | 1.2 | -0.3 | 1.4 | -0.6
Menin-MLL FL inh | 1.2 | 0.9 | / | 0.0 | / | /
gsp agonist | 0.8%[15.4 µM] | 21.5% | / | 32.8%[15.4 µM] | / | /
gsp antag | -2.5% | 1.7% | / | -4.5% | -15.8% | /
TRPML1 inh | 5.6 | / | ? | 25.4 | 4.9 | 13.1
ClpP mod | / | -3.0% | -0.1% | / | -4.2% | -1.3%

Only ClpP mod, for two of the compounds above:
| # | canonical_smiles | ClpP mod |
| --- | --- | --- |
| 8 | CC(=O)NCCc1nc2cc(NS(=O)(=O)c3ccc(Cl)cc3)ccc2n1C | -3.0% |
| 9 | O=C(Nc1ccc(N2CCOCC2)cc1)c1csc(COCCO)n1 | -0.1% |

Going on with the list.
13) CC1CCN(C(=O)CCn2c(=O)oc3ccc(Cl)cc32)CC1
14) Cc1nc(-c2ccc(F)cc2)sc1CCNC(=O)c1ccccc1C(F)(F)F
15) Cc1cc2nc3c(nc2cc1C)C1(C(=O)O)CCC3(C)C1(C)C (stereo not drawn)
16) O=C(CCNS(=O)(=O)c1ccc(Cl)cc1)N1CCC2(O)CCCCC2C1 (stereo not drawn)
17) Cc1cc(C)nc(NC(=O)c2ccc([N+](=O)[O-])c(C)c2)n1
18) COC(=O)c1ccc(NC(=O)CSc2nc(=O)[nH]c3c2CCCC3)cc1

assay / compound | 13 | 14 | 15 | 16 | 17 | 18
TRPML1 ag | 0.3 | 0.8 | 0.9 | 0.5 | 0.0 | -0.4
Menin-MLL FL inh | / | / | 1.8 | 1.3 | 0.5 | /
gsp agonist | -108.6%[inhibitor] | / | -33.0%[inhibitor] | 12.1% | -0.1%[15.4 µM] | /
gsp antag | / | / | 5.2%[15.4 µM] | 3.4%[15.4 µM] | -3.1% | /
TRPML1 inh | -9.4 | -18.7 | -8.4 | 4.5 | 12.4 | 23.5
ClpP mod | -1.4% | ? | -1.4% | -0.8% | -2.5% | -4.0%

19) O=C(CSc1nc2ccccc2s1)Nc1ccc(N2CCOCC2)c(Cl)c1
20) CC(C)(C)NC(=O)CSc1nc2ccc(NC(=O)CSc3nnc(N)s3)cc2s1
21) CCOC(=O)Cc1csc(N/C(=N/S(=O)(=O)c2ccc(F)cc2F)c2ccccc2)n1
22) N#C/C(=C\c1cccn1S(=O)(=O)c1cccc(C#N)c1)S(=O)(=O)c1ccc(F)cc1
23) CCc1ccccc1NC(=O)CCc1c(C)nc2cc(-c3ccccc3)nn2c1C
24) N#Cc1nc(COc2ccccc2)oc1N1CCN(Cc2ccccc2)CC1

assay / compound | 19 | 20 | 21 | 22 | 23 | 24
TRPML1 ag | 1.1 | -0.1 | -0.1 | -0.1 | -0.3 | -0.5
Menin-MLL FL inh | 1.2 | / | -1.8 | / | / | 4.4
gsp agonist | -9.9% | -1.2%[15.4 µM] | -0.3% | / | / | 9.9%
gsp antag | ? | -13.1% | -10.5% | / | / | -14.8%
TRPML1 inh | -2.4 | -2.9 | 4.2 | 26.8 | -26.7 | -0.5
ClpP mod | 0.4% | 0.8% | -1.7% | -1.3% | 4.1% | -0.1%

Whole records, quoted from the list. Screens in order: TRPML1 ag	Menin-MLL FL inh	gsp agonist	gsp antag	TRPML1 inh	ClpP mod
`CC(C)(C)NC(=O)CSc1nc2ccc(NC(=O)CSc3nnc(N)s3)cc2s1` is listed with -0.1	/	-1.2%[15.4 µM]	-13.1%	-2.9	0.8%
`N#C/C(=C\c1cccn1S(=O)(=O)c1cccc(C#N)c1)S(=O)(=O)c1ccc(F)cc1` is listed with -0.1	/	/	/	26.8	-1.3%
`N#Cc1nc(COc2ccccc2)oc1N1CCN(Cc2ccccc2)CC1` is listed with -0.5	4.4	9.9%	-14.8%	-0.5	-0.1%
`CCc1ccccc1NC(=O)CCc1c(C)nc2cc(-c3ccccc3)nn2c1C` is listed with -0.3	/	/	/	-26.7	4.1%
`CCOC(=O)Cc1csc(N/C(=N/S(=O)(=O)c2ccc(F)cc2F)c2ccccc2)n1` is listed with -0.1	-1.8	-0.3%	-10.5%	4.2	-1.7%

Additional compounds follow:
25) Cc1ccc(C)c(NC(=O)CSc2ncnc3nc[nH]c23)c1
26) CCOC(=O)c1c(C)[nH]c(C)c1S(=O)(=O)N1CCC(C(=O)Nc2ccc(C)cn2)CC1
27) CCCc1nc2sc3c(c2c(=O)[nH]1)CCCC3
28) Cn1c(=O)[nH]c(=O)c2[nH]c(CN3CCN(C(=O)c4ccco4)CC3)nc21

assay / compound | 25 | 26 | 27 | 28
TRPML1 ag | 0.1 | 1.0 | -1.2 | 0.3
Menin-MLL FL inh | 0.7 | / | -3.4 | 3.8
gsp agonist | ? | / | 7.2%[15.4 µM] | -9.9%
gsp antag | 16.4% | / | 7.6% | 7.9%
TRPML1 inh | -14.9 | -11.1 | 1.5 | -15.1
ClpP mod | -0.7% | 0.9% | -0.4% | -2.1%
